Screening results as filed in PubChem BioAssay.
BJeLR lethal – kills HRASV12-expressing BJeLR cells. 0.17% of 300,000 active. BJeLR (HRASV12) viability, CellTiter-Glo ATP luminescence, 48 h; reference of the scale not given here. AID 1554. inhibition, % (concentration not given with the values);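 active = replicate mean above 50%; inconclusive = above 50% but judged a plate artefact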;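 also: 50 nL library stock added to about 25 µL; numbers are from one replicate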
PrP 5UTR inh – inhibition of PrP 5' UTR reporter expression. cell-based PrP 5' UTR mRNA reporter, plate reader. inhibition, % (no concentration beside the values). 0.35% of 340,000 active. AID 488862;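 active = every replicate at 50% or more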;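 also: 0 = median of the neutral control wells; tested in H4 reporter cells; numbers are from one replicate; inactives centre near -14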
Sa ugtP lethal – compounds lethal to S. aureus RN4220 ugtP deletion mutant | OD600 growth, 16 h; some inactives read as strong as hits | growth inhibition, % (test concentration not listed) | 0.54% of 330,000 active | AID 1259309;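 active = z-score under -3 and OD600 up to 0.15 on both plates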;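 also: plate controls were untreated wells for no effect and antibiotic for full effect; wells of about 80 µL received 100 nL stock; the first replicate is given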
Autofluor counter – compound fluorescence in toxin protease inhibitor counterscreen; compound autofluorescence counterscreen, microsphere flow cytometry; hits give high values; fluorescence intensity (no concentration beside the values); 3.1% of 360,000 active; AID 624483;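 active = at least 3 SD above the mean of all compounds, about 16000 in these data; inconclusive = too few beads counted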;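 also: 100 nL of 1 mM stock went into each well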
Mtb hypoxia rep – inhibitors of hypoxia-regulated fluorescent reporter in Mycobacterium tuberculosis; M. tuberculosis hypoxia-regulated fluorescent reporter, fluorescence; fluorescence inhibition, % (test concentration not listed); 0.1% of 300,000 active;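 active = 35 to 45% if threefold the growth effect, above 45% if 1.5-fold the growth effect; inactive = the rest, general growth blockers included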;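 also: wells of about 50 µL received 100 nL stock; 0% = vehicle wells and 100% = reference inhibitor wells; whole bacteria with a GFP reporter of the hypoxia response; strong numbers were not always called active; many hits fall short of the cut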
RN4220 kill – kills Staphylococcus aureus RN4220 | S. aureus RN4220 growth, OD600, 16 h | inhibition, % (concentration not given with the values) | 0.33% of 330,000 active | AID 1259311;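 active = z-score of -3 or lower and OD600 up to 0.18 on both plates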;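 also: plate controls were untreated cells for no effect and reference antibiotic for full effect; stock transfer was 100 nL into about 80 µL; one replicate is shown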
Mtb hypoxia rep growth – recorded beside Mtb hypoxia rep, whose call it bears; growth inhibition, %; measured here: M. tuberculosis growth (absorbance);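 0% = vehicle and 100% = reference antibiotic; read after six days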
An asterisk follows results filed as active; ? = inconclusive; . = no result given.

SMILES	BJeLR lethal	PrP 5UTR inh	Sa ugtP lethal	Autofluor counter	Mtb hypoxia rep	Mtb hypoxia rep growth	RN4220 kill
Cc1cc(NC(=O)C(C)Sc2nc(-c3ccccc3)cc(=O)[nH]2)no1 (stereo not drawn)	4	-30	-11	3704	-2	-6	-6.0
CNC(=O)CSc1nnc(-c2cccnc2)n1-c1ccc(C)cc1	1	-25	0	3157	8	8	5.1
O=C(NCCn1ccc2ccccc21)C1CCCCC1	7	-30	1	5958	17	13	-13
CCOC(=O)c1sc(C)c(C(=O)NC2CCCCC2)c1N	1	-15	4	1910	.	.	-0.2
CC(C)S(=O)(=O)c1csc(NC(=O)Nc2ccc(Cl)cc2)c1	15	-18	-21	4010	9	3	-6.6
O=c1cc(CSc2nc3cc(Cl)ccc3o2)nc2sccn12	9	-20	13	4623	.	.	2.7
CCOC(=O)Cc1csc(NC(=S)NC(=O)c2ccccc2C)n1	-3	-42	8	7875	3	3	2.4
COC(=O)C1(C)NC(c2ccc(Cl)cc2)C2C(=O)N(c3ccccc3)C(=O)C21 (stereo not drawn)	2	-28	13	3088	6	-8	1.5
COc1ccc(N)cc1-n1cnnn1	-7	-14	11	4525	21	0	3.8
O=C(NN1CCOCC1)c1ccco1	.	-16	-1	3916	-11	0	1.4
Cc1ccccc1S(=O)(=O)Cc1ccc(C(=O)NC(C)c2ccc3c(c2)OCCO3)o1 (stereo not drawn)	2	-11	-3	5946	.	.	-0.1
Cc1cc(C)n(C(=O)CN2C(=O)c3ccccc3C2=O)n1	0	-6	2	10267	3	3	0.8
COc1ccc(/C=C2\SC(=O)N(CCCC(=O)Nc3cc(Cl)ccc3C(=O)O)C2=O)cc1	.	92*	3	3058	10	7	23
CCCCCC(=O)Nc1ccc(S(=O)(=O)Nc2cc(OC)nc(OC)n2)cc1	-3	6	7	3600	-2	11	0.5
Cn1c(=S)[nH]c2cccnc21	-1	-7	2	3515	8	2	-1.6
CNC(=S)NN=Cc1ccc(-c2ccc(Cl)c([N+](=O)[O-])c2)o1	.	.	-16	.	14	7	-11
CCCCCCNC(=O)c1c(O)c2ccccc2[nH]c1=O	3	-14	0	3461	3	9	5.4
O=c1[nH]c2ccc(Cl)cc2c(O)c1-c1ccccc1	-3	-3	-10	2905	8	5	4.2
Cc1ccccc1-n1c(SCc2c(C)noc2C)nnc1-c1ccncc1	-2	-2	0	?	-7	0	4.2
CCC(=O)c1ccc(OCC(=O)N2CCN(c3ccccn3)CC2)cc1	-5	-10	9	4300	-5	-2	5.3
Cc1ccc(NC(=O)C(Cc2ccccc2)n2cccc2)cc1 (stereo not drawn)	9	-11	12	6575	6	11	-1.1
Cc1cc(/C=N/n2cnnc2)c(C)n1-c1cc(Cl)ccc1Cl	-1	-35	.	11541	.	.	.
COc1ccc(N(CC(=O)NN=C2CCN(C)CC2)S(=O)(=O)c2ccccc2)c(OC)c1	-12	-22	9	3897	-2	3	2.8
COc1ccc(CN2C(=O)/C(=C/c3ccncc3)SC2=S)cc1	11	-22	-1	2817	6	8	13
CSc1ccc(CN(C)C(=O)c2cccc(S(=O)(=O)NCc3ccccc3)c2)cc1	1	-12	5	5438	0	5	2.1
CC12CS(=O)(=O)CC1SC(=S)N2c1ccccn1 (stereo not drawn)	0	4	-2	4491	.	.	-3.8
O=C(Cn1ncc(Cl)c(Cl)c1=O)c1ccc(Cl)cc1	8	14	-9	3743	-1	1	0.2
COCc1cc(C)nc(OCC(=O)NN=Cc2ccccc2O)c1C#N	.	.	14	.	-1	2	3.3
O=C(Nc1ccccc1)c1cc([N+](=O)[O-])ccc1Cl	-3	-5	1	5228	-1	11	1.6
COc1ccc(-c2nc3ccccc3c(=O)n2-c2c(C)n(C)n(-c3ccccc3)c2=O)cc1	-10	10	8	3952	15	3	0.8
C=CCC(c1ccccc1)N(C(C)=O)c1ccco1 (stereo not drawn)	1	-16	1	3161	11	15	3.9
O=C(CSc1nccn(-c2ccc(F)c(Cl)c2)c1=O)NC1CCCC1	2	-7	8	5634	-4	1	1.3
COc1ccc(CNC(=O)CCNS(=O)(=O)c2ccc(Cl)cc2)cc1	-3	-43	3	4631	14	12	-0.1
O=C(NC(=S)Nc1ccc(Cl)c(C(=O)O)c1)c1cncc(Br)c1	5	-3	-7	4278	0	-1	1.5
C/C=C/c1ccc(OCCCNC)c(OC)c1	-5	-3	-2	10889	9	3	2.5
CN(Cc1ccccc1)C(=O)COC(=O)c1ccc(-n2cnnn2)cc1	.	-25	2	7594	2	0	2.5
COc1cccc(/C=N/NC(=O)c2cc(-c3cccn3C)n[nH]2)c1O	2	12	.	2047	.	.	.
COc1cc(/C=N/NC(=O)Nc2ccccc2)ccc1OCCOc1ccccc1C	-9	-18	.	15488	.	.	.
O=C(O)CC1C(=O)NCCN1Cc1ccc(F)c(F)c1 (stereo not drawn)	-4	-3	6	4429	14	9	4.0
Cc1cc(C)n(CC(=O)N2N=C(C(F)F)CC2(O)C(F)F)n1 (stereo not drawn)	10	-2	5	2441	4	-2	6.0

Of the compounds above, these have an NH in an aromatic ring:
SMILES	BJeLR lethal	PrP 5UTR inh	Sa ugtP lethal	Autofluor counter	Mtb hypoxia rep	Mtb hypoxia rep growth	RN4220 kill
Cc1cc(NC(=O)C(C)Sc2nc(-c3ccccc3)cc(=O)[nH]2)no1 (stereo not drawn)	4	-30	-11	3704	-2	-6	-6.0
Cn1c(=S)[nH]c2cccnc21	-1	-7	2	3515	8	2	-1.6
CCCCCCNC(=O)c1c(O)c2ccccc2[nH]c1=O	3	-14	0	3461	3	9	5.4
O=c1[nH]c2ccc(Cl)cc2c(O)c1-c1ccccc1	-3	-3	-10	2905	8	5	4.2
COc1cccc(/C=N/NC(=O)c2cc(-c3cccn3C)n[nH]2)c1O	2	12	.	2047	.	.	.

The list continues.
SMILES	BJeLR lethal	PrP 5UTR inh	Sa ugtP lethal	Autofluor counter	Mtb hypoxia rep	Mtb hypoxia rep growth	RN4220 kill
CCc1ccc(NC(=Nc2nc(C)cc(C)n2)NC(C)=O)cc1	.	.	4	.	-6	-5	7.0
CNC(=O)c1ncoc1-c1ccc(Cl)cc1	8	-19	-10	5813	0	4	-2.8
N=C1C(=O)OCC1c1ccccc1NC(=O)Nc1ccccc1 (stereo not drawn)	-9	-18	11	3361	7	7	6.0
O=C(Nc1ccc(S(=O)(=O)Nc2ccccc2)cc1)C1CC1	1	-9	-4	6227	5	1	1.7
CN1CCc2c(sc3c2C(=O)NC(c2ccc4c(c2)OCO4)N3)C1 (stereo not drawn)	-4	-9	-2	4803	18	5	5.9
CCC1(CC)C(=N)N(C)C(=O)NC1=O	-13	-24	0	10790	7	0	3.0
CCN(Cc1ccccc1)S(=O)(=O)c1ccc(C(=O)Nc2nnc(C)o2)cc1	5	-5	3	6011	1	3	13
O=C(NC(=S)N1C[C@H]2C[C@H](C1)c1cccc(=O)n1C2)c1ccc(Cl)cc1	1	-44	8	4001	.	.	1.3
CCOC(=O)C(NC(=O)CC)(Nc1ccc(S(=O)(=O)Nc2onc(C)c2C)cc1)C(F)(F)F (stereo not drawn)	8	-6	5	3958	3	15	2.5
O=C(NNS(=O)(=O)c1ccccc1)c1ccncc1	-6	-22	-1	2918	7	3	2.7
Nn1c(SCc2cc([N+](=O)[O-])cc3c2OCOC3)nnc1-c1ccccn1	-5	-16	9	4553	14	9	1.8
COc1cccc(-c2c(NC(=O)c3ccco3)n(-c3ccc(C)cc3)nc(C)c2=O)c1	.	-12	-5	16965*	-2	-2	-2.8
COc1ccc(C2C(C(=O)N3CCC4(CC3)OCCO4)c3cc(OC)c(OC)cc3C(=O)N2C)cc1 (stereo not drawn)	4	-12	1	4489	4	9	1.7
O=C(COC(=O)c1cncc(Br)c1)NCC12CC3CC(CC(C3)C1)C2	.	-2	0	4742	-8	-5	4.4
CCOc1cc(C(=O)Nc2ccc3c4c(cccc24)C(=O)N3CC)cc(OCC)c1OCC	-2	-30	3	9508	3	3	0.6
O=C(NCCCN1CCCC1=O)c1cccc(S(=O)(=O)Nc2ccccc2Cl)c1	.	.	-2	6044	-5	-6	4.0
CNc1nc2[nH]c(=O)c3c(c2s1)OC(N)=C(C#N)C3c1cccc(F)c1 (stereo not drawn)	-4	-12	.	2890	.	.	.
Cc1ccc(NC(=O)CN(C)Cc2nc3ccccc3c(=O)[nH]2)c(Br)c1	-4	-13	-6	2895	.	.	-1.4
CCCCN(C)CCCNC(=O)c1cn(CC)c2ccc(S(=O)(=O)N3CCOCC3)cc2c1=O	15	3	15	6088	8	7	2.0
NC(=O)Cc1ccc(C(=O)c2ccc(Cl)cc2)s1	0	-23	-1	2624	-5	-2	4.0
CCOC(=O)Cc1csc(/N=C/c2c(O)n(-c3ccc(C)cc3C)c(=O)c3ccccc23)n1	7	-23	4	10689	4	-2	-4.9
CC(Sc1nnc(NC(=O)c2cc3ccccc3oc2=O)s1)c1ccccc1 (stereo not drawn)	2	-19	11	6662	6	5	2.8
Cc1onc(-c2ccccc2)c1C(=O)NC(=S)NNC(=O)c1ccco1	-2	0	8	5437	2	12	28
CCc1ccccc1OCCCN1CCCC1	1	-16	6	3090	11	1	4.0
CCOC(=O)C1CCN(c2nc(-c3ccc(C)cc3)nc3ccccc23)CC1	0	-9	18	4296	6	4	-1.8
CSc1cccc(CN2CCC(CCC(=O)NC3CC3)CC2)c1	-5	-9	9	3068	-3	0	3.4
O=C(NCC(c1cccs1)N1CCOCC1)c1ccccc1NS(=O)(=O)c1ccc(Cl)c([N+](=O)[O-])c1 (stereo not drawn)	4	-5	3	2392	-1	12	5.2
Cn1c(C(=O)N2CCN(c3ccc(F)cc3)CC2)cc2ccccc21	-4	5	5	4454	5	3	2.4
O=C(/C=C/c1ccccc1)OCC(=O)N1CCCC1	.	-3	2	3742	7	8	2.6
C=C1CC(C(=O)N/N=C/c2ccc(O)cc2)C1	5	-2	.	3331	.	.	.
CN(C)Cc1c[nH]c2ccc([N+](=O)[O-])cc12	.	-14	-5	3336	2	18	-0.3
C=CCC1(CC=C)CCCN1C(=O)CC1C(=O)NCCN1Cc1cccc(OC)c1OC (stereo not drawn)	-23	-9	3	4073	0	12	4.2
Cc1ccc(Nc2ccc(C(N)=O)cc2[N+](=O)[O-])cc1C	-12	-19	-7	2460	18	13	5.2
COC(=O)CC1C(=O)NCCN1C(=O)CSc1nnnn1-c1ccc(OC)cc1 (stereo not drawn)	-5	-8	-3	4552	0	-4	0.4
O=C(Nc1ccc(OC(F)F)c(Cl)c1)C(c1ccccc1)c1ccccc1	-1	-5	-13	1918	3	-12	-3.0
Cc1cc(NC(=O)COC(=O)c2cc(S(=O)(=O)N(C)C)ccc2Cl)no1	.	-7	-4	5885	14	4	-1.3
CCN1CCN(C(=O)c2c(-c3ccccc3)noc2C)CC1	-2	-10	8	2877	5	-1	6.4
O=S(=O)(CC12C3C4C5C1C2C(Br)(C43)C51OCCO1)c1ccccc1 (stereo not drawn)	-9	-33	3	1926	-7	-8	5.3
Cn1c(SCC(N)=O)nnc1-c1ccccc1	-11	-23	3	12726	0	4	2.7
Cc1ccc(-c2n[nH]c(=S)n2N=Cc2cccs2)cc1	.	.	-2	.	18	7	4.5
Cc1ccc(S(=O)(=O)Nc2cccc(Oc3cnccn3)c2)cc1	-4	-9	6	4726	-1	3	4.3
Cc1ccc(C)c(S(=O)(=O)Nc2ccccc2C(=O)Nc2cc(C)on2)c1	7	-28	12	7945	8	13	24
O=[N+]([O-])c1ccccc1/C=N/NC1=NCCCCC1	-5	-71	.	3027	.	.	.
COCCCNC(=O)C[C@H]1C[C@H](C(=O)N2CCOCC2)[C@@]2(CCC3CCCC3)c3[nH]c4cc(-c5ccco5)ccc4c3CCN2C1=O	.	-15	11	4863	1	-2	5.9
COc1ccccc1C(=O)NC(CCSC)C(=O)NNC(=O)C(C)Oc1ccccc1F (stereo not drawn)	.	.	-2	.	9	2	4.0
O=P(c1ccccc1)(c1ccccc1)C(O)c1ccc(Br)cc1 (stereo not drawn)	1	-10	2	4298	-2	11	2.7
Cc1cc(S(=O)(=O)NCc2ccccc2)ccc1OCC(=O)NCc1ccncc1	0	-14	0	5874	2	10	4.5
CCCC(=O)Nc1ccc(Br)cn1	2	-14	2	2924	5	5	5.5
